Bioassay records from PubChem.
Arbovirus inh: arbovirus infection inhibition. arbovirus infection cell-based antiviral screen. inhibition, % at 10 µM. hit rate 0.37% among 200,000. AID 1251;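 active = inhibition from about 30%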;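 also: bluetongue infection of BSR cells; cell survival read as ATP light after 72 h; 0% = infected wells without compound and 100% = uninfected wells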
Mtb growth: M. tuberculosis H37Rv growth inhibitors, H37Rv strain (AID 1626). M. tuberculosis H37Rv growth inhibition; higher % means a stronger effect. hit rate 0.95% among 220,000. inhibition, % at 10 µM; hits with a dose series show IC50 in µM;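 active = confirmed in a dose series; inconclusive = inhibition above 80% but not taken into the dose series; inactive = below 80% or under 30% at every dose of the series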;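 also: bacteria incubated seven days before Alamar blue readout; 0% = bacteria only wells and 100% = bacteria with antibiotic wells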
YopH inh: blocks Yersinia enterocolitica YopH tyrosine phosphatase. fluorescence Ex485/Em525. inhibition, %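 (about 10 µM by stock and volumes)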. hit rate 0.16% among 140,000;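 active = inhibition of 50% or more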;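 also: controls were vehicle for no effect and minimum signal wells for full effect; inactives centre near -20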
RecA intein inh: blocks M. tuberculosis RecA intein splicing; inhibition, %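 (about 9 µM by stock and volumes)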; hit rate 0.75% among 290,000; P9WHJ3; cell-free RecA intein splicing, fluorescence; in the data active = inhibition above about 30%; inconclusive = no clear call, values can overlap the other calls;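 also: 0% = vehicle wells and 100% = reference inhibitor control wells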
Target sequence (P9WHJ3 whole entry, looked up): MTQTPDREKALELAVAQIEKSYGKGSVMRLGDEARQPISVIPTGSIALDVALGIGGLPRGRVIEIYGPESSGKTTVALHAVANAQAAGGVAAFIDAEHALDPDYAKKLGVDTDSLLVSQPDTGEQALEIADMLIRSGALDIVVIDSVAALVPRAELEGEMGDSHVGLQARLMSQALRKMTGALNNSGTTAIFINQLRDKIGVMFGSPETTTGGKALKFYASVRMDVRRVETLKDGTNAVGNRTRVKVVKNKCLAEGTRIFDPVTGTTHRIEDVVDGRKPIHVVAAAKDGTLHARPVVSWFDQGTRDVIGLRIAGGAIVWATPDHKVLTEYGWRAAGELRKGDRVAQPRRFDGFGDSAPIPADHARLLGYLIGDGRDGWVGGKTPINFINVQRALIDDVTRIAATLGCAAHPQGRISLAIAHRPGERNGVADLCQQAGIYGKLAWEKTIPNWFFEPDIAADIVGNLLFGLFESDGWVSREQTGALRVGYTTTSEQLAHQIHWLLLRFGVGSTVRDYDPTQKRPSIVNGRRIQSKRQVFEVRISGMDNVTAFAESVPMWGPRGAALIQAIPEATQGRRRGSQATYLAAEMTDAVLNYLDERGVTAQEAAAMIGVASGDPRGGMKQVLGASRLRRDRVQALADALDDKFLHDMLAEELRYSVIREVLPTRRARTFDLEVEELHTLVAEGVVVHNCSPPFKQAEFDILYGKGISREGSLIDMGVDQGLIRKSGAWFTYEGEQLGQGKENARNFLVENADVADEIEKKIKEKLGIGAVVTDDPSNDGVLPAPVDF
Mtb bLac sens: beta-lactam sensitization of Mtb H37Rv. hit rate 0.27% among 330,000. AID 434955. M. tuberculosis H37Rv growth with meropenem, percent inhibition; hits of this screen are not shown here. inhibition, % at 25 µM;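 active = about 74% or more and at least 40 points above the plate without the antibiotic, then above 30% in a dose series; inconclusive = first-round hits that could not be retested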;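 also: growth measured after seven days incubation then overnight dye step; 0% = bacteria only wells and 100% = bacteria with antibiotic; twin plates without the antibiotic show which effects depend on it; some results filed as inactive read as strong as hits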
Arbovirus inh repeat: recorded beside Arbovirus inh, whose call it bears; inhibition, %; measured here: 10K subset replicate screen; many hits read low in the repeat;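 first of two repeat runs on a subset; 0% = infected and 100% = uninfected wells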
Numbers without * were called inactive; ? = inconclusive; . = no result given.

SMILES | Arbovirus inh | Mtb growth | YopH inh | RecA intein inh | Mtb bLac sens | others
O=C(C(=O)N1CCOCC1)c1cn(Cc2c(F)cccc2Cl)c2ccccc12 | -6.1 | 1.2% | . | -4.6 | -1.6
Cc1ccc(NC(=O)C2CCCN2C(=O)OCc2ccccc2)c(O)c1 (stereo unspecified) | . | . | . | -1.4 | 0.7
O=C(NNc1ncc(C(F)(F)F)cc1Cl)c1c(Cl)cccc1Cl | -9.8 | 6.2% | -12.3 | -1.3 | -4.3
COC(=O)C1=C(NC(=O)c2ccc(Br)cc2)CCS1 | 1.4 | 12.7% | . | 0.5 | -0.5
CC(=O)c1ccc[n+](CC(=O)NC(C)c2ccccc2)c1 (stereo unspecified) | . | . | . | 0.8 | 0.2
Cc1ccc(S(=O)(=O)c2nc(S(C)(=O)=O)sc2NCC2CCCO2)cc1 (stereo unspecified) | 5.7 | -18.9% | -20.5 | 0.8 | -12.2
CC(C)COC(=O)C(N)C(C(=O)OCC(C)C)c1ccccc1 (stereo unspecified) | -2.5 | -7.9% | -34.9 | -1.4 | 0.8
Cc1c(Cl)cccc1NC(=S)N=Nc1c(O)n(CN2CCOCC2)c2ccccc12 | -25.4 | ? | 5.1 | 20.4 | 12.3
Cc1ccc(-n2nc3ccc(NC(=O)/C=C/c4ccco4)cc3n2)cc1C | -18.7 | 4.3% | 0.0 | 2.7 | 51.0
Cc1ccc(C(=O)NCCNC(=O)CN2CCOCC2)cc1 | 1.9 | . | -32.6 | -2.8 | -3.5
O=C(NCc1cccc(Cl)c1)c1ccco1 | -4.7 | 0.2% | -13.5 | 1.4 | -0.2
CN(CCCNC(=O)c1ccc(/C=N/O)nc1)CCCN(C)Cc1ccccc1 | -25.5 | -4.0% | 0.0 | -6.1 | 7.6
CCOc1ccc(S(=O)(=O)N2CCC(C(=O)NCC3CCCO3)CC2)cc1Cl (stereo unspecified) | . | . | . | -0.5 | 5.5
CCOc1ncccc1C(=O)OCC(=O)Nc1ccc(-c2nc3ccc(C)cc3s2)cc1 | 1.3 | -1.3% | -22.4 | 0.4 | -3.9
O=C(CSc1nc(C2CC2)nc2ccccc12)Nc1ccccc1Cl | . | . | . | 3.3 | 9.4

Reprinted at random: 3 compounds from above.
SMILES | Arbovirus inh | Mtb growth | YopH inh | RecA intein inh | Mtb bLac sens | others
Cc1ccc(C(=O)NCCNC(=O)CN2CCOCC2)cc1 | 1.9 | . | -32.6 | -2.8 | -3.5
CCOc1ccc(S(=O)(=O)N2CCC(C(=O)NCC3CCCO3)CC2)cc1Cl (stereo unspecified) | . | . | . | -0.5 | 5.5
Cc1ccc(S(=O)(=O)c2nc(S(C)(=O)=O)sc2NCC2CCCO2)cc1 (stereo unspecified) | 5.7 | -18.9% | -20.5 | 0.8 | -12.2

The list goes on:
SMILES | Arbovirus inh | Mtb growth | YopH inh | RecA intein inh | Mtb bLac sens | others
Cc1cc(C)c2c(n1)nn1c(C3CC3)cc(C(F)(F)F)nc21 | . | 2.6% | -6.3 | -3.2 | -0.7
Cc1c(-c2ccccc2)nc2ccccc2c1C(=O)Oc1ccc([N+](=O)[O-])cc1 | 1.0 | 72.9% | -20.6 | 6.0 | 22.4
CCCN(C(=O)Cc1c(C(=O)O)n(C)c2ccccc12)c1cccc(C)c1 | . | . | . | 3.0 | 5.5
Cc1nc[nH]c(=O)c1Br | -1.4 | -3.1% | -23.2 | -2.8 | 8.8
CC(C)C(=O)Nc1cccc(NC(=O)c2cccc(F)c2)c1 | -2.9 | -0.8% | . | -1.6 | -1.9
CCOC(=O)COn1c2c(c3c4no[n+]([O-])c4ccc31)CCCC2 | 6.1 | ? | -45.0 | 0.2 | 99.9
COc1ccc(CCNC(=O)C2CCCN2C(=O)Nc2ccc(F)cc2)cc1OC (stereo unspecified) | . | . | . | 2.8 | -2.6
CCCCCCC(=O)NNC(=O)c1c(O)c2ccccc2n(CC)c1=O | -9.0 | 3.6% | . | 3.5 | 2.9
[O-][n+]1onc2c1CCC(=N/O)/C2=N\Nc1ccccc1 | . | -11.9% | . | 13.1 | 14.6
COc1ccc(NC(=O)C2CCCN(c3ncnc4onc(-c5ccc(F)cc5)c34)C2)cc1 (stereo unspecified) | . | . | . | -6.5 | 1.1
Cc1ccc(OCc2cc(C(=O)N3CCCC3)no2)cn1 | . | . | . | 1.0 | -2.9
CC(=O)Nc1ccc(S(=O)(=O)NCC2CCC(C(=O)NC3CCCCCC3)CC2)cc1 (stereo unspecified) | 2.8 | 3.9% | -12.8 | -1.7 | 2.9
COc1ccc(CNC(=O)CN(c2ccc(C(C)C)cc2)S(=O)(=O)c2c(C)noc2C)cc1 | . | . | . | 2.8 | 8.4
CCCn1nnnc1NCc1ccccc1C | . | . | . | -3.4 | 0.1
COc1cc(/C=C(\NC(C)=O)C(=O)Nc2cccc(O)c2)ccc1OC(C)=O | -2.7 | 4.0% | -28.8 | -6.0 | -4.6
C=CCn1c(C(CCCC)CC(O)COCC(C)C)n[nH]c1=S (stereo unspecified) | 9.1 | -2.7% | . | -0.2 | 12.5
COc1cnc(-c2ccccn2)nc1Sc1c(Cl)cccc1Cl | -4.3 | ? | -40.0 | 6.4 | 81.8
O=C(Nc1ccc(C2SCCS2)cc1)c1ccccc1 | . | -3.7% | . | 0.8 | -3.8
O=C(c1ccc(Cl)c(Cl)c1)N1CCC(=O)N(C(CO)Cc2ccccc2)CC1 (stereo unspecified) | . | -10.0% | . | 0.7 | -1.0
CN(C)S(=O)(=O)c1ccc(N2CCCC2)c(C(=O)NC(c2ccccc2)c2ccccc2)c1 | -0.9 | -8.2% | 1.8 | 2.1 | -13.4
O=C(CSc1ccccc1)N1CCCC(N2CCN(c3cccc(Cl)c3)CC2)C1 (stereo unspecified) | . | . | . | 7.8 | -1.0
O=S1(=O)C=C(Sc2nc3cc(Cl)ccc3o2)c2ccccc21 | -23.1 | 2.9µM* | -52.0 | 5.3 | 99.9
N#C/C(=C/c1cccs1)c1ccccn1 | . | 1.9% | . | 3.7 | 0.8
COc1ccc(N2C(=O)CCC(C(=O)N3CCOCC3)C2c2ccc(F)cc2)cc1 (stereo unspecified) | 4.8 | -7.3% | -0.8 | 0.1 | -10.3
O=C(CC(C(=O)O)c1ccc(Cl)cc1)c1ccc(Br)cc1 (stereo unspecified) | . | . | . | 0.4 | -2.3
CC(OC(=O)c1ccc(Br)c(S(=O)(=O)N2CCOCC2)c1)C(=O)NC1CCCCC1C (stereo unspecified) | . | . | . | 0.2 | -11.8
O=C(CSCc1ccccc1)NCCc1ccc(F)cc1 | . | . | . | 2.1 | 0.8
COc1ccc(Cl)cc1NC(=O)CN(C)CC(=O)Nc1ccc(C)cc1Br | 5.7 | -2.4% | . | 1.6 | 10.2
O=C(N/N=C/c1ccc(N2CCCCC2)o1)c1ccccc1[N+](=O)[O-] | -4.3 | -6.0% | -3.9 | 4.3 | 3.2
O=C(NCc1ccc2c(c1)OCO2)c1ccc(S(=O)(=O)N2CCOCC2)cc1 | 3.8 | 3.4% | . | 3.5 | -1.5
COc1ccccc1-c1nc(C#N)c(N2CCc3ccccc3C2)o1 | -13.2 | 3.0% | -40.8 | -1.6 | 21.6
COc1cc(CCC(=O)NCC2CCCO2)cc(OC)c1OC (stereo unspecified) | . | . | . | -1.2 | -3.9
Cc1c(Cl)c([N+](=O)[O-])nn1CCCC(=O)Nc1c(C)n(C)n(-c2ccccc2)c1=O | 7.6 | 4.4% | . | 1.8 | -14.3
O=C(O)Cc1ccc(NC(=O)CCN2C(=O)c3ccc([N+](=O)[O-])cc3C2=O)cc1 | 22.4 | -1.1% | . | -6.9 | .
Cc1nnc(Sc2cc(NCCCO)c([N+](=O)[O-])c3nonc23)s1 | -11.3 | -2.4% | . | 91.4* | .
CCC(=O)c1ccc(OCCn2cnc3ccccc32)cc1 | 5.3 | 9.3% | . | -2.0 | 4.9
CC(C)(C)c1ccc(-c2c(C#N)c(N)nc3c2CCCC3)s1 | 11.9 | -9.9% | -19.1 | -2.0 | -0.1
CCOC(=O)C1CCCN(C(=O)CCn2nnnc2CN2CCOCC2)C1 (stereo unspecified) | . | . | . | 0.1 | 0.9
O=C(COC(=O)/C=C/c1ccc(Cl)cc1)Nc1ccc2c(c1)OCCO2 | 2.5 | 17.5% | -6.6 | 4.0 | 10.2
Cc1ccccc1NS(=O)(=O)c1ccc(NC(=O)CSCc2ccc(Br)cc2)cc1 | 5.7 | -1.7% | -25.8 | 3.1 | 14.4
CCc1nnc(N/N=C/c2ccc(-c3ccc([N+](=O)[O-])cc3)o2)n1N | -2.2 | 81.2% | . | 26.5 | 96.1
COc1ccc(-c2[nH]n(-c3ccc([N+](=O)[O-])cc3)c(=O)c2C=NCCN2CCNCC2)cc1 | -23.3 | 1.2% | . | 5.0 | 2.4
COc1ccc(N(C(=O)CSCC(=O)Nc2cc(C)on2)C(C(=O)NC2CCCCC2)c2ccc(O)c(O)c2)cc1 (stereo unspecified) | -7.0 | -5.8% | -33.4 | 0.4 | 14.4
COc1ccc(/C=C(/NC(=O)c2ccco2)C(=O)N2CCCCC2)cc1 | . | . | . | -4.1 | -6.7
O=c1oc2cc(Oc3c([N+](=O)[O-])cc(C(F)(F)F)cc3[N+](=O)[O-])ccc2c2c1CCCC2 | 3.3 | -10.4% | -21.4 | 41.5* | 85.1
Oc1ccc(/C=C/c2ccc3cccc(O)c3n2)cc1Br | . | . | . | 2.5 | 85.4
O=C(NC1CCN(Cc2ccccc2)CC1)c1cncc(Br)c1 | -18.0 | 7.3% | . | 1.8 | -11.7
CCCC1=NN(C(=O)CCc2ccccc2O)C(O)(C(F)(F)F)C1 (stereo unspecified) | 12.7 | 10.7% | -7.6 | -0.7 | 7.1
CCOC(=O)c1ccccc1NC1c2ccccc2C(=O)N1c1ccc(C)cn1 (stereo unspecified) | -3.4 | 11.4% | -33.5 | 2.1 | -6.6 | Arbovirus inh repeat=-0.8
O=C(C(Sc1ccccc1)c1ccccc1)N1CCN(c2ccccc2F)CC1 (stereo unspecified) | -9.6 | 7.8% | -24.5 | 5.6 | -0.8
Cc1ccccc1C(=O)NC1CC2CCCC(C1)N2C(=O)Nc1ccccc1 (stereo unspecified) | . | . | . | -0.7 | -3.8
COc1ccc(-c2csc3ncnc(NCCN4CCOCC4)c23)cc1 | -17.3 | 9.6% | -23.6 | -2.9 | -10.4
Cc1ccc(OCC(=O)Nc2cccc(S(=O)(=O)NC3=NCCCCC3)c2)cc1C | . | . | . | -3.7 | -14.3
CCOc1ccc(N(C)S(=O)(=O)c2ccc3[nH]cc(C(=O)NCCCOC)c(=O)c3c2)cc1 | . | . | . | 0.6 | 26.0
COc1ccc(CNC(=O)Cn2nc([N+](=O)[O-])c(Br)c2C)cc1 | . | . | . | -3.9 | 0.0
CC1CCc2c(sc3ncnc(NCCN4CCOCC4)c23)C1 (stereo unspecified) | 4.5 | 8.8% | . | -3.7 | 3.4
O=C1c2ccccc2S(=O)(=O)N1Cc1ccccc1[N+](=O)[O-] | . | . | . | -0.1 | -12.1
CN(C)CCCNC(=O)c1ccc(=O)[nH]n1 | . | -4.8% | . | -1.9 | -6.2
Cc1ccc(S(=O)(=O)N2CCN(C(=O)c3sccc3-c3ccccc3)CC2)cc1 | . | . | . | 5.3 | 10.9
COc1ccc(N(CC(=O)Nc2cccnc2)S(=O)(=O)c2ccc(C)cc2)cc1Cl | . | . | . | 1.9 | 6.0

Next part:
SMILES | Arbovirus inh | Mtb growth | YopH inh | RecA intein inh | Mtb bLac sens | others
CCN(CC)c1nc2n(c(=S)n1)CCS2 | 2.0 | -11.2% | -27.0 | 0.1 | 0.9
O=C(CCNC(=O)c1ccc(Br)cc1)NCCCc1ccccc1 | . | . | . | -0.1 | 3.1
c1ccc(C2=NP(N3CCOCC3)(N3CCOCC3)=NC(N3CCOCC3)=N2)cc1 | 6.6 | -7.2% | 3.0 | -1.0 | .
COc1ccc(CC(=O)Nc2nc3ccc(F)cc3s2)cc1S(=O)(=O)N1CCOCC1 | 14.2 | -4.6% | -6.7 | 3.3 | 13.6
CSc1ncccc1C(=O)N1CCN(S(=O)(=O)c2ccc(F)cc2)CC1 | . | . | . | 2.3 | -3.7
CC(c1ccccc1)n1c(N2CCN(C)CC2)nc2c1c(=O)[nH]c(=O)n2C (stereo unspecified) | . | . | . | -2.6 | -4.7
CSc1nc(O)c(Cc2ccccc2)c(=O)[nH]1 | 0.2 | 1.6% | -25.7 | -2.4 | 5.3
Cc1nc(SCC(=O)c2cc3ccccc3oc2=O)c(C#N)c(-c2ccccc2)c1C(=O)Nc1ccccc1 | -13.2 | ? | -13.0 | 1.6 | ?
Cn1c(SCC(=O)NCCN2C(=O)CSC2=O)nnc1-c1ccccc1 | 0.4 | 0.2% | -11.1 | -1.1 | -4.3
CCN(CC)CC(O)COCCC12CC3CC(CC(C3)C1)C2 (stereo unspecified) | -12.0 | 2.8% | -10.9 | 2.0 | 11.0

This is a subset; the hit share may differ from the screen's.
